High-throughput results: PubChem, National Center for Advancing Translational Sciences (NCATS)
TRPV1 potentiator = HTS Assay for Compounds that Act as Potentiators of the Vanilloid Receptor 1; 320,000 tested, 0.02% active; potentiation, % at 8.33 µM; TRPV1-expressing cells, Fluo-8 calcium influx, capsaicin EC20 potentiation; host cell line not named in the record; control for the full effect not named in the record; Transient receptor potential cation channel subfamily V member 1 (Homo sapiens), Q8NER1; active means potentiation above 80%; inconclusive means 30% to 80%; inactive means below 30%; further: 0% is about no effect
Target sequence (Q8NER1 whole entry, looked up): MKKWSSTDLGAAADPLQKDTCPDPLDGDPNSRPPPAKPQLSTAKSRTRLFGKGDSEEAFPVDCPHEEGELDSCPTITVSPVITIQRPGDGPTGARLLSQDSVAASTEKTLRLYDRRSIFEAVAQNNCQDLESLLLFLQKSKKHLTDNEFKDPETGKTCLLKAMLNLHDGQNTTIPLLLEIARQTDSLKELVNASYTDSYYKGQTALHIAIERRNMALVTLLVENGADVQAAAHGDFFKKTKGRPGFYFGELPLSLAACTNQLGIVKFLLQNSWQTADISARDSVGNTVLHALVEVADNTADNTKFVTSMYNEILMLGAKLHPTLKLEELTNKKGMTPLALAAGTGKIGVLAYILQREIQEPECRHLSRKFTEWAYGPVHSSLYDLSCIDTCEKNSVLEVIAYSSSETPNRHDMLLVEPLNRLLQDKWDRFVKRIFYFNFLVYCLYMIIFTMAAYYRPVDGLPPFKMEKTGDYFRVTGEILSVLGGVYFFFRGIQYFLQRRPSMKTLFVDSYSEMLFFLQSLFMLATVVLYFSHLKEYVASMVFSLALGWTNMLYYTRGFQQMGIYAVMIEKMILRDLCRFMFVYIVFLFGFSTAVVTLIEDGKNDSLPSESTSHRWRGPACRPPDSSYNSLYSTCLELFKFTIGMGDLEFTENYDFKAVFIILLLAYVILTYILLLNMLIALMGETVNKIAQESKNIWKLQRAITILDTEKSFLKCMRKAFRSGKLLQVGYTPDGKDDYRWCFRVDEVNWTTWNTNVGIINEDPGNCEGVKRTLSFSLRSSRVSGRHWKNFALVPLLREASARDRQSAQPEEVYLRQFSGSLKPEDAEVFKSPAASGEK
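Fluo-8 calcium influx in TRPV1-expressing cells, kinetic read (ex 480/em 520 nm). Compound added and read 3 min for agonist activity, followed by capsaicin at EC20 final and 2 min further read for enhancement.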
Six1-Eya2 blk = qHTS Assay for Inhibitors of the Six1/Eya2 Interaction | Homeobox protein SIX1 (Homo sapiens) + Protein phosphatase EYA2 (Homo sapiens), … | activity change, % (no concentration beside the values) | 360,000 tested, 0.56% active | AlphaScreen GST-Six1/His-Eya2 binding, biochemical; stronger effect = lower value; control for the full effect not named in the record; in the data active = activity change below about -65%; inconclusive = about -30% to -65%; inactive = above about -30%; further: on the % scale 0 is the no-effect control and ±100 the full control effect; compound concentration not given in the record
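AlphaScreen luminescence read after one hour at 37 °C in darkness. Pin-transferred compounds met GST-Six1 and His-Eya2 protein (5X stock 250 nM/500 nM) plus glutathione donor and Ni-chelate acceptor beads (5X, 50 ug/mL).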
D2 agonist = Beta-Arrestin HTS for Positive Allosteric Modulators of the Human D2 Dopamine Receptor: Agonists; D(2) dopamine receptor (Homo sapiens), P14416; DiscoveRx PathHunter D2 beta-arrestin, luminescence, 90 min; 100% = 57 uM dopamine signal; activation, % (concentration not given with the values); 360,000 tested, 0.084% active; in the data active = activation above about 40%; inconclusive = about 15% to 40%; inactive = below about 15%; further: compound concentration not given in the record; the text of the record calls up to 30% inactive
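DiscoveRx PathHunter D2 beta-arrestin cells (2,100/well) attached overnight, then compound-stimulated 90 min at 37 C in HBSS/10 mM HEPES/0.1% Tween-20 buffer; beta-galactosidase complementation read by luminescence after 1 h at ambient temperature. Dopamine 57 uM final (EC100) as control.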
PINK1 expr mod = A Quantitative High throughput Screen to Identify Chemical Modulators of PINK1 Expression; PINK1 immunofluorescence, high-content cytometry, 24 h; Potency, µM (highest dose often 76.6 µM), without a hit: top-dose activation (PINK1 increase), usual class: activators; 410,000 tested, 0.2% active; active = well fitted activation curve with a large enough effect; inconclusive = small, poorly fitted or top-dose-only effect; inactive = flat fitted curve, though single readings scatter; cell line not stated here;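 further: potency means the concentration at half of the fitted maximal effect; % of control where 0% means no effect; nearly all actives have a fitted effect of over 65% in size; a mitochondrial uncoupler was the plate control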
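Decision-based qHTS: stable cells, 24 h exposure to five compound concentrations, CCCP as control. Fixed cells stained for PINK1 plus nuclear, mitochondrial and cell markers, cytometer read.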
CtBP-E1A blk = qHTS Assay for Inhibitors of the CtBP/E1A Interaction | CtBP / adenovirus E1A interaction (AlphaScreen) | AlphaScreen GST-E1A/His-CtBP binding, 1536-well; stronger effect = lower value; control for the full effect not named in the record | activity change, % (test concentration not listed) | 340,000 tested, 0.49% active | AID 651724, 2012; in the data active means activity change below about -65%; inconclusive means about -30% to -65%; inactive means above about -30%; further: on the % scale 0 is the no-effect control and ±100 the full control effect; compound concentration not given in the record
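In 5 uL wells, 23 nL compound meets equimolar GST-E1A and His-CtBP (5X stock 125 nM each) for 2 h, 37 °C. Beads (5X, 50 ug/mL) then 1 h, 37 °C, dark.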
D2 potentiator = Beta-Arrestin HTS for Positive Allosteric Modulators of the Human D2 Dopamine Receptor: Potentiators. 360,000 tested, 0.23% active. AID 624464, 2012. D(2) dopamine receptor (Homo sapiens), P14416. DiscoveRx D2 beta-arrestin cells, luminescence, 90 min; 100% = 57 uM dopamine signal. potentiation, % (test concentration not listed); active = potentiation of 50% or more; inconclusive = 30% to 50%; inactive = 30% or less;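 further: compound concentration not given in the record; tested on top of an EC20 dose of dopamine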
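D2 cells co-treated with compound plus 50 nM dopamine (EC20) for 90 min at 37 deg C to detect potentiation. Beta-arrestin recruitment was read as enzyme-fragment luminescence after 1 h at ambient temperature. Full response was set by 57 uM dopamine.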
Sfp inh = qHTS Assay for Inhibitors of Bacillus subtilis Sfp phosphopantetheinyl transferase (PPTase). 310,000 tested, 3.5% active. AID 1490, 2009. Potency, µM, for the others: max response, negative = inhibition, hits mostly inhibitors. Biochemical Sfp PPTase activity, qHTS. 4'-phosphopantetheinyl transferase ffp (Bacillus subtilis), Q9F4F7; active means well fitted inhibition curve with a large enough effect; inconclusive means small, poorly fitted or top-dose-only effect, or another doubt; inactive means no such curve, though single readings can be large or run the other way;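 further: the enzyme is Sfp with the accession as filed and its product quenches rhodamine fluorescence; potency means the concentration at half of the fitted maximal effect; 0% = enzyme reaction without inhibitor and -100% = no enzyme wells; top concentration of the series not given in the record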
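Sfp 15 nM + cpd, 15 min RT; start w/ rhodamine-CoA 5 uM, BHQ-2-YbbR 12.5 uM (final); 50 mM Hepes pH 7.6, 10 mM MgCl2, 0.01% NP-40, 0.01% BSA; read 525/598 nm at 0 and 30 min.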
* = called active by the depositor; ? = inconclusive; . = no result given; [ ] = another dose, or the depositor's remark.

Values run as follows: Six1-Eya2 blk	D2 agonist	Sfp inh	D2 potentiator	TRPV1 potentiator	CtBP-E1A blk	PINK1 expr mod
CC(=O)NCCNC(=O)C1(C)Cc2c(-c3ccc(C(N)=O)cc3)ccnc2O1 (stereo unspecified)
 : 3	7.2	.	0	.	11	1.9%
C=C1CCC[C@]2(C)C[C@H]3OC(=O)C(CN[C@@H](C)c4ccccc4)[C@H]3CC12 (stereo partly specified)
 : 9	-0.9	1%	-2	-10	2	6.3%
COCO/C=C(\NC(C)=O)c1ccccc1
 : 0	-6.6	.	-4	4	4	0.1%
COc1ccc(CCNC(=O)Cc2ccc(NC3=NC4CS(=O)(=O)CC4S3)cc2)c(OC)c1 (stereo unspecified)
 : -1	-5.9	3%	-5	3	2	1.5%
CCC(=O)c1ccc(OCC(=O)NNC(=O)c2cc(C)oc2C)cc1
 : 0	-6.0	.	-29	11	0	-0.6%
O=C(N/N=C/c1cc2c(cc1Br)OCO2)c1c[nH]c2ccccc12
 : -12	0.0	11%	-4	3	.	0.5%
CC(=O)Nc1ccc2c(c1)nc(CCN1CCC(C)CC1)n2C
 : 3	-1.5	24%	-15	-21	-4	3.0%[38.3 µM]
Cc1ccc(CSCC(=O)Nc2ccccc2C(=O)O)cc1
 : 10	5.1	8%	52*	?	.	-0.5%
c1ccc2[nH]c(CN3CCN(c4ncnc5c4oc4ccccc45)CC3)nc2c1
 : -26	-1.6	15%	-17	-12	-15	-0.5%
NC(=O)C1CC(=O)N(c2ccc(OCc3ccc(Cl)cc3)cc2)C1 (stereo unspecified)
 : -2	7.7	-7%	-12	3	.	1.6%
CC(C(=O)N1CCc2ccccc21)N1CCN(S(=O)(=O)c2ccc(C(F)(F)F)cc2)CC1 (stereo unspecified)
 : -1	-4.1	.	-19	2	7	-1.2%
N#CCc1ccc(NS(=O)(=O)c2ccc(C3CCCCC3)cc2)cc1
 : -1	0.7	15%	-5	-9	-5	8.1%
Cn1c(=O)c2[nH]c(-c3ccccc3Cl)c(O)c2n(C)c1=O
 : 1	3.8	?	25	-3	-2	0.5%
CCCCn1c(N)c(N(CCC(C)C)C(=O)c2c(C)noc2C)c(=O)[nH]c1=O
 : 1	4.2	.	3	12	4	5.2%
COc1ccc2c(CC(=O)Nc3nccs3)coc2c1
 : -13	-2.8	-13%	-5	11	1	2.8%
Fc1cccc(Cc2c(-c3ccccc3)nc3ccc(Br)cn23)c1
 : 6	-3.4	.	-7	.	-1	11%
O=C(CCC1CCCC1)NNC(=O)c1ccc(F)cc1
 : 0	-6.8	.	3	-1	.	1.8%
O=C1NC[C@@H](Cc2ccc(O)cc2)N(CCCCC2CCCCC2)C1=O
 : 7	.	.	.	.	-4	0.1%
O=C(NCCS(=O)(=O)N1CCN(Cc2ccccc2)CC1)c1ccc(F)cc1
 : 6	-3.4	.	-2	-5	3	0.5%
COc1ccc(OC)c(S(=O)(=O)N2CCc3ccccc32)c1
 : 1	-5.4	1%	9	-2	0	0.0%
Cc1nc(NS(=O)(=O)c2ccccc2)sc1C(=O)NN
 : -7	-3.0	-17%	-7	15	-2	-0.6%
COc1ccc(C(=O)NCCCNC(=O)c2ccc(C)nc2)cc1
 : -3	-2.8	18%	-10	8	-3	1.7%
O=C1OCCN1S(=O)(=O)Nc1ccccc1
 : 3	-2.2	13%	-2	2	.	0.7%
O=C(NNC(=O)c1ccco1)c1cccc(Br)c1
 : 5	0.5	-3%	-14	13	-2	-0.2%
Cc1ccc(NC(=O)c2ccc(Br)o2)c([N+](=O)[O-])c1
 : -5	-4.4	.	-5	.	8	2.1%
O=C(NCc1ccc(Cl)cc1)C1CCC(CNc2c(N3CCOCC3)c(=O)c2=O)CC1 (stereo unspecified)
 : -1	0.8	15%	0	3	-7	-0.2%
CC(=O)OCC1OC(OCc2cn(C[C@H]3CC[C@@H]([C@@H]4CC[C@H](Cn5cc(COC6OC(COC(C)=O)C(OC(C)=O)C(OC(C)=O)C6OC(C)=O)nn5)O4)O3)nn2)C(OC(C)=O)C(OC(C)=O)C1OC(C)=O (stereo partly specified)
 : -2	2.0	14%	-12	-3	-7	-0.9%
CCN(C[C@H]1N[C@@](CC)(C(=O)OC)[C@H]2C(=O)N(Cc3ccccc3)C(=O)[C@@H]12)S(=O)(=O)c1ccc(C(F)(F)F)cc1
 : 0	-0.8	.	.	.	-11	1.6%
N/C(=N\OC(=O)Cc1cccs1)c1ccccc1
 : 25	1.2	8%	10	4	23	1.3%
O=C(OCC1OC2C(Oc3nc(=O)ccn32)C1O)c1ccccc1 (stereo unspecified)
 : 6	-1.6	11%	8	4	-4	2.1%

Further structures
Values run as follows: Six1-Eya2 blk	D2 agonist	Sfp inh	D2 potentiator	TRPV1 potentiator	CtBP-E1A blk	PINK1 expr mod
N#Cc1ccc(C(=O)OCC(=O)N2CCOCC2)cc1
 : 6	-2.3	17%	-2	6	6	0.4%
COc1cc(Cc2ccc(N)c(OC)c2)ccc1N
 : 5	-1.7	7%	18	-3	22	0.4%
CC(=O)OCC1=C(C(=O)O)N2C(=O)C(NC(=O)CCn3nc(C)c(Cl)c3C)C2SC1 (stereo unspecified)
 : -1	0.7	?	-5	-1	0	0.6%
CCOC(=O)C1=CCN(S(=O)(=O)c2ccc(C)cc2)C1c1cccc(Br)c1 (stereo unspecified)
 : 12	-4.5	.	-8	.	0	2.1%
CO/N=C(/COc1ccc(F)cc1)c1ccc(OC)cc1
 : 11	-3.2	9%	-8	4	56	1.9%
Cn1c(CN2CCCCC2)nc2cc([N+](=O)[O-])ccc21
 : -5	-1.4	-1%	-15	11	-17	-0.4%
NS(=O)(=O)c1cccc(NC(=O)CCSc2ccc(Cl)cc2)c1
 : 8	-0.1	6%	-15	18	1	3.7%
COc1ccc(S(=O)(=O)N2CCCC(C(=O)NCc3cccnc3)C2)cc1 (stereo unspecified)
 : -3	-3.6	22%	-5	-7	4	0.1%
Cc1ccc(Cl)cc1N1CCN(C(=O)c2ccc3nc[nH]c3c2)CC1
 : 0	1.0	2%	-9	-6	-19	0.9%
COc1ccccc1NC(=O)COc1ccc2ccccc2c1
 : 7	-0.5	?	-11	-5	13	0.5%
O=C(Nc1cccc(-c2nc3ccccc3s2)c1)c1ccc2c(c1)OCO2
 : 0	0.5	-5%	-13	1	9	.
Cc1nnc(SCc2nnc(-c3cccs3)o2)s1
 : 4	0.8	8%	-17	22	11	-1.5%
Cc1cc2cc(C)c(NCCNC(=O)c3ccccc3F)nc2cc1C
 : -8	-3.2	21%	-12	-7	-5	2.2%
CCOCCCNC(=S)Nc1cc(C)cc(C)c1
 : -8	-2.5	-6%	-21	-10	-5	1.2%
COc1ccccc1NC(=O)c1nn(-c2ccc(F)c(F)c2)ccc1=O
 : 9	-3.5	3%	-11	-9	-1	11%
O=C1NC[C@@H](CCCCN2CCN(CCc3ccc(O)cc3)C(=O)C2=O)N(CCC2CCCCC2)C1=O
 : -4	.	.	.	.	0	0.0%
CCN(CC)S(=O)(=O)c1ccc(Cl)c(NC(=O)c2cc(Cl)cc(Cl)c2)c1
 : -5	-4.7	6%	-4	-19	-4	15%
CCC(CC)C(=O)c1c[nH]c(C(=O)NCCCN2CCOCC2)c1
 : 1	-0.2	8%	-29	-2	-20	1.1%
O=S(=O)(NCCc1ccccc1)c1ccc(F)cc1
 : -2	1.0	6%	-2	0	.	2.0%
C=CCn1c(SCC(=O)Nc2cc(C)c(Cl)cc2OC)nnc1-c1ccco1
 : -10	-1.5	7%	-9	13	-12	-4.0%[38.3 µM]
COc1cccc(NS(=O)(=O)c2ccc3c(c2)CCN3C(C)=O)c1
 : -5	7.4	3%	1	-1	5	3.2%
CCc1ccc(CCC(=O)Nc2sc(C)c(C)c2C(=O)OC)o1
 : -3	-4.3	56µM*	-12	-5	1	0.1%[38.3 µM]
Cc1ccc(C(=O)n2nc(-c3ccccc3)nc2NCc2ccco2)cc1
 : 0	-3.4	2%	-6	-6	3	1.6%[38.3 µM]
Cc1ccc(C(=O)NCCn2c(N)c(C#N)c3nc4ccccc4nc32)cc1
 : ?	-2.8	4%	3	8	-5	?

Individual results from the results shown.
Under CtBP-E1A blk, `CCCCn1c(N)c(N(CCC(C)C)C(=O)c2c(C)noc2C)c(=O)[nH]c1=O` is entered as 4
Under TRPV1 potentiator, `O=C(N/N=C/c1cc2c(cc1Br)OCO2)c1c[nH]c2ccccc12` is entered as 3

Records listed above that bear a hit mark in Sfp inh:
| Structure | Six1-Eya2 blk | D2 agonist | Sfp inh | D2 potentiator | CtBP-E1A blk | PINK1 expr mod |
| --- | --- | --- | --- | --- | --- | --- |
| CCc1ccc(CCC(=O)Nc2sc(C)c(C)c2C(=O)OC)o1 | -3 | -4.3 | 56µM* | -12 | 1 | 0.1%[38.3 µM] |

3 of the compounds above, as labelled records.
Cc1ccc(Cl)cc1N1CCN(C(=O)c2ccc3nc[nH]c3c2)CC1
- Six1-Eya2 blk: 0
- D2 agonist: 1.0
- Sfp inh: 2%
- D2 potentiator: -9
- TRPV1 potentiator: -6
- CtBP-E1A blk: -19
- PINK1 expr mod: 0.9%

NS(=O)(=O)c1cccc(NC(=O)CCSc2ccc(Cl)cc2)c1
- Six1-Eya2 blk: 8
- D2 agonist: -0.1
- Sfp inh: 6%
- D2 potentiator: -15
- TRPV1 potentiator: 18
- CtBP-E1A blk: 1
- PINK1 expr mod: 3.7%

CO/N=C(/COc1ccc(F)cc1)c1ccc(OC)cc1
- Six1-Eya2 blk: 11
- D2 agonist: -3.2
- Sfp inh: 9%
- D2 potentiator: -8
- TRPV1 potentiator: 4
- CtBP-E1A blk: 56
- PINK1 expr mod: 1.9%

Random draw from the library, and some 3.7% of all compounds hit somewhere here.
